GLA inh pH 4.5: blocks human alpha-galactosidase A at pH 4.5. 230,000 tested, under 10 active. activity change, negative = inhibition, % at 105 µM. P06280. purified enzyme, 4-MU-alpha-Gal fluorescence, pH 4.5; inconclusive = small, poorly fitted or top-dose-only inhibition, or a rising curve; inactive = flat fitted curve, though single readings scatter; no compound was filed as active;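 also: 0% = full activity with enzyme and -100% = basal without enzyme; dose as in the result columns while the protocol names 77 µM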
Target sequence (P06280 whole entry, looked up): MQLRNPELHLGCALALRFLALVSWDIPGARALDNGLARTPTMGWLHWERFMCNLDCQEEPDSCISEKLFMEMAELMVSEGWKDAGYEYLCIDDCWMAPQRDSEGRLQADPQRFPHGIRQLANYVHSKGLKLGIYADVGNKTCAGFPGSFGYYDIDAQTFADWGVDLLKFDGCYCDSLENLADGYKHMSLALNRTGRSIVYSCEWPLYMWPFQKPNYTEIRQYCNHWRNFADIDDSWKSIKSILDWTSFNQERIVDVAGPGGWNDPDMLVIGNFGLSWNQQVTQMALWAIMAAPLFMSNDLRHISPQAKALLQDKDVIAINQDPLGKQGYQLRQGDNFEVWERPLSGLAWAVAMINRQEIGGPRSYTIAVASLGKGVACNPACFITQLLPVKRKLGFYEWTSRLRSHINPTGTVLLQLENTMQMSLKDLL
miR-21 FLuc: raises the signal of a miR-21 reporter; AID 2288; HeLa miR-21 FLuc reporter, luciferase, 48 h; Potency, µM (doses to about 38.3 µM), without a hit: top-dose reporter change, positive = more light; 340,000 tested, under 10 active; active = well fitted rising curve with a large enough effect; inconclusive = small, poorly fitted or top-dose-only effect; inactive = no such curve, though single readings can be large or run the other way;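 also: % of control where 0% means no effect; miR-21 action dims this reporter so a rising signal means less miR-21 action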
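Luminescence from a firefly luciferase reporter carrying a miR-21 binding site downstream, stably expressed under a CMV promoter in HeLa cells that make miR-21 endogenously, reports miRNA modulation after 48 h compound exposure up to approximately 40uM final.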
Rango complex inh: Rango-importin beta binding inhibition. Rango CFP/YFP FRET sensor + importin beta, 45 min. Potency, µM (series often up to 92.2 µM), inactives show top-dose inhibition of complex formation. 0.031% of 340,000 active. AID 540263; active = rising FRET ratio curve, often small or poorly fitted; inconclusive = mostly compound fluorescence or quenching in the first reads; inactive = flat curves in all reads;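 also: potency is read from the fitted curve at half-maximal effect; 0% = DMSO wells and 100% = buffer wells lacking importin beta; nearly all actives have a fitted effect of over 15% in size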
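FRET biosensor (snurportin 1 IBB flanked by EYFP and cerulean), 50 nM, with compound 5 min, then 0.125 microM importin beta in PBS, 1 mM DTT, 0.02% Tween-20, 0.1% BSA. CFP/YFP ratio read after 45 min at room temperature; pre-read flags interference.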
Rango dissoc inh: prevents RanGTP from dissociating the Rango-importin beta complex; O95149+P62826; Biochemical FRET Rango-importin beta, RanGTP-induced dissociation; Potency, µM (highest dose often 46.1 µM), for inactives: at the highest dose activity change, negative = inhibition; 0.071% of 340,000 active; active means falling FRET ratio curve, often poorly fitted, with flat reads before Ran was added; inconclusive means other falling curves, or compound fluorescence or quenching; inactive means flat or rising ratio curve;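 also: potency is read from the fitted curve at half-maximal effect; % of control where 0% means no effect; nearly all actives have a fitted effect of over 45% in size; -100% = wells without RanGTP and RCC1; the record marks most hits as doubtful in a second field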
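FRET read at 45 min, room temperature: inhibitors block the CFP/YFP signal rise when RanGTP (0.6 uM Ran, 2 mM GTP, 0.2 uM RCC1) frees Rango (0.1 uM) from importin beta (0.25 uM). Pre-read after 5 min compound exposure flags interference.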
Active calls of the source: *; ? = inconclusive; nt = not tested or not shown. These rows are one share of the data; rates above refer to the full screens.

Structure,GLA inh pH 4.5,Rango complex inh,miR-21 FLuc,Rango dissoc inh
O=C(C[C@H]1C[C@H](C(=O)N2CCOCC2)[C@@]2(CCC3CCCC3)c3[nH]c4cc(-c5ccco5)ccc4c3CCN2C1=O)NCc1cccc(C(F)(F)F)c1,nt,?,nt,-4.5%
CCOC(=O)C(C)Sc1ncnc2nc[nH]c12 (stereo not given),5.1,-3.5%,-6.3%,7.0%
Cc1cc(C)nc(NC(=O)Cc2ccc([N+](=O)[O-])cc2)c1,-1.4,0.5%,-3.5%,-9.7%
O=C(C[C@H]1C/C=C\C[C@H](Cc2ccc(F)cc2)C(=O)O[C@@H](c2ccccc2)CNC1=O)N[C@H](CO)Cc1ccccc1,nt,-6.8%,nt,-6.0%
Cc1nc(Oc2ccccc2)c2ccsc2n1,-14.9,0.1%,-10.6%,1.1%
CN(C)c1ccc(C(CNS(=O)(=O)c2ccc3ccccc3c2)N2CCOCC2)cc1 (stereo not given),nt,-1.7%,nt,5.3%
Nc1nc(Br)c2c(F)cccc2c1-c1ccc(Cl)cc1,5.3,0.0%,5.3%,4.2%
N#CC1=C(SCC(=O)Nc2ccccc2)NC(=O)CC1c1ccco1 (stereo not given),nt,7.0%,nt,3.6%
Cc1ccnc(NS(=O)(=O)c2ccc(NC(=O)c3cc(-c4ccc(Br)cc4)nc4ccccc34)cc2)n1,-2.0,-1.3%,-2.5%,0.6%
CCOc1ccc(NC(=S)NC(C)C(c2ccccc2)N2CCN(C)CC2)cc1 (stereo not given),4.9,-1.3%,1.1%,-3.8%
Nc1nc2ccccc2n1/N=C/c1ccc2c(c1)OCO2,-2.7,-4.2%,-55.0%,-8.2%
CC(C)N1CC2(c3ccccc3)CN(C(C)C)CC(c3ccccc3)(C1)C2=O,0.3,-3.1%,-1.5%,0.4%
Cc1c(NC(=O)/C(C#N)=C/c2ccccc2)c(=O)n(-c2ccccc2)n1C,12.7,1.4%,-11.7%,-13.0%
CC(C)NCCOc1cccc(Br)c1,6.7,-0.3%,-1.2%,-0.3%
CN(C)CCn1c2c(c(SCC(=O)NCc3ccccc3)nc1=O)CCC2,nt,-2.6%,nt,-1.5%
CCc1ccc(-c2nc(CN3CCC(C(=O)N4CCN(c5ccccn5)CC4)CC3)c(C)o2)cc1,5.6,2.0%,-4.2%,0.2%
CCOc1ncccc1C(=O)OCC(=O)NC1CC1,4.4,1.9%,0.6%,?
O=C(Nc1ccc2c(c1)C(=O)NC2=O)c1cccc(Cl)c1,nt,-3.6%,-5.3%,-1.7%
N/C(=N\OS(=O)(=O)c1ccc2ccccc2c1)c1ccncc1,5.9,2.3%,-1.7%,5.9%
Cc1csc(NC(=O)C(CC(C)C)NS(=O)(=O)c2ccc3c(c2)oc(=O)n3C)n1 (stereo not given),0.9,-2.6%,-19.6%,5.6%
CN(C)C/C=C/C(O)(c1ccccc1)c1ccccc1,-4.3,-4.2%,3.5%,17.3%
CC(=O)Nc1ccc(S(=O)(=O)NC(CC(=O)NCCCN2CCOCC2)C(C)C)cc1 (stereo not given),3.5,-2.7%,-0.4%,-4.0%
O=C(COC(=O)c1ccc(S(=O)(=O)N2CCCCC2)cc1)NCc1ccc(F)cc1,nt,0.6%,nt,0.5%
O=C1NC(c2ccccc2)(C(F)(F)F)SC2=NCCCN12 (stereo not given),-10.1,0.8%,-0.3%,18.4%
Cc1ccnc(NS(=O)(=O)c2ccc(-n3cccn3)cc2)c1,nt,-1.8%,-3.2%,-0.8%
COCCn1c(SCC(=O)NCc2ccccc2)nnc1-c1ccco1,8.0,-0.8%,-5.6%,0.2%
Cc1nc(SCC(=O)Nc2ccc(Cl)cc2[N+](=O)[O-])nc(C)c1C,-3.5,-4.1%,-0.9%,34.5%
CC1CCCC(C)N1/N=C/c1ccc(C#N)cc1 (stereo not given),9.2,1.2%,-1.7%,0.8%
COc1ccc2c(c1)CCN(C(=O)CCl)C2C1C(=O)CCCC1=O (stereo not given),-0.1,?,7.8%,-11.8%
CCN1CCN(Cc2ccc(NC(=O)c3cc(NC(=O)C4=NN(c5ccccc5)C(=O)C4)cc(OC)c3)cc2C(F)(F)F)CC1,-5.6,0.4%,6.3%,23.9%

Next section, overlapping the part above by four compounds.
Structure,GLA inh pH 4.5,Rango complex inh,miR-21 FLuc,Rango dissoc inh
Cc1nc(SCC(=O)Nc2ccc(Cl)cc2[N+](=O)[O-])nc(C)c1C,-3.5,-4.1%,-0.9%,34.5%
CC1CCCC(C)N1/N=C/c1ccc(C#N)cc1 (stereo not given),9.2,1.2%,-1.7%,0.8%
COc1ccc2c(c1)CCN(C(=O)CCl)C2C1C(=O)CCCC1=O (stereo not given),-0.1,?,7.8%,-11.8%
CCN1CCN(Cc2ccc(NC(=O)c3cc(NC(=O)C4=NN(c5ccccc5)C(=O)C4)cc(OC)c3)cc2C(F)(F)F)CC1,-5.6,0.4%,6.3%,23.9%
CCC(=O)NC(=S)Nc1cccc(NC(=O)c2ccccc2)c1,1.1,-1.8%,5.3%,0.9%
Cc1cc(/C=C(\C#N)C(=O)NCC2CCCO2)c(C)n1-c1ccc(Cl)cc1 (stereo not given),1.2,3.9%,-23.1%,-3.9%
C=CCNC(=S)N1CCc2[nH]c3ccccc3c2C1,-1.6,-2.6%,-1.4%,?
Cc1ccnc(NC(=O)/C=C/c2ccccc2[N+](=O)[O-])c1,-2.0,nt,-39.9%,nt
CC(C)CNC(=O)c1ccc(COc2ccc(Cl)cc2Cl)o1,-2.3,0.1%,-19.8%,6.5%
CCN(CC(=O)Nc1ccc(NC(C)=O)cc1)c1ccc(C(F)(F)F)cn1,-2.2,0.0%,-6.0%,?
O=C(CCC1CCCN(Cc2ccc3c(c2)OCCO3)C1)NCc1ccc(F)c(F)c1 (stereo not given),8.9,1.9%,-6.5%,-8.5%
COc1cccc(-c2cc3nc4c(c(N5CCC6(CC5)OCCO6)n3n2)CCC4)c1,1.4,0.7%,-22.9%,0.0%
Cn1c(=O)[nH]c2nnc(-c3ccc(Cl)c(Cl)c3)nc2c1=O,5.5,-0.2%,-38.3%,-0.9%
Cc1nn(-c2ccc(Cl)cc2)c(=O)c2ccccc12,-2.8,-1.6%,-59.6%,-4.2%
COc1cc(NC(=O)C(c2ccccc2)c2ccccc2)c(C(=O)O)cc1OC,nt,-2.1%,1.7%,1.6%
O=C(CCn1c(=S)[nH]c2cc3c(cc2c1=O)OCO3)N1CCc2ccccc2C1,-4.3,nt,2.3%,nt
CCN1C(=O)[C@H]2[C@@H](c3ccc(-c4ccc5c(c4)OCO5)cc3)N[C@@](Cc3ccccc3)(C(=O)OC)[C@H]2C1=O,nt,-4.8%,nt,-6.2%
CCN(CC)CCCN=Cc1c(-c2ccccc2)[nH]n(-c2nc3ccccc3s2)c1=O,-4.0,0.1%,-8.5%,16.8%
Cc1sc(NC(=O)CN2CCCC2)nc1-c1ccc2c(c1)CCN2C(=O)c1cccc(F)c1,nt,1.6%,23.3%,20.2%
Cc1cc(C)c(OCCCCN(C)Cc2ccccc2)c(C)c1,nt,0.2%,9.1%,-8.9%
O=C(NC(NC1CCS(=O)(=O)C1)C(Cl)(Cl)Cl)c1cccc(Cl)c1 (stereo not given),8.3,0.5%,2.3%,-15.8%
CN1/C(=C\C(=O)CSc2nnc(NCc3ccccc3)s2)C(C)(C)c2ccccc21,-0.1,-4.0%,4.0%,9.3%
CCOc1ccc(NS(=O)(=O)c2cc(C(=O)N3CCN(C(C)=O)CC3)ccc2Cl)cc1,nt,1.6%,-4.9%,12.6%
Cc1cc(C(=O)CN2CCCC2)c(C)n1-c1ccc(Cl)cc1,-4.1,1.6%,-2.8%,-6.6%
COc1cccc(-c2ccc3c(c2)C2CC3CCN2C(C)=O)c1 (stereo not given),nt,-1.4%,nt,1.4%
Cc1ccc(-c2cnc3cc(C)nn3c2)cc1,0.6,-1.8%,-27.5%,4.7%
C/C(N)=C(/C#N)C(=O)COC(=O)COc1ccc(Cl)cc1C,0.5,-0.6%,-0.2%,5.8%
Oc1c(C(c2ccccn2)N2CCCCC2)cc(Cl)c2cccnc12 (stereo not given),-0.8,-1.1%,26.1%,13.7%
COC(=O)c1ccc(COc2ccccc2/C=C(\C#N)C(=O)Nc2ccccc2C)cc1,-0.8,3.3%,-4.8%,2.2%
COc1ccc(-c2cccc([C@H]3[C@@H]4C=CC[C@@H](C)[C@@H]4C(=O)N3Cc3ccccc3)c2)cc1,-7.6,2.3%,nt,-3.6%
N#CC(=C=[N-])/C=C(\C(=O)c1ccccc1)[n+]1ccccc1,-15.4,-3.0%,2.6%,17.7%
Cc1cc2c(cc1S(=O)(=O)Nc1ccc(F)cc1)n(C)c(=O)c(=O)n2C,nt,5.2%,4.0%,9.0%
CCOC(=O)N1CCC(C(N)=O)CC1,-3.2,3.5%,-0.8%,-2.8%
O=C(N/N=C/c1ccc(C(=O)O)cc1)C1=NNC(c2ccccc2)(c2ccccc2)C1,-1.2,0.0%,-2.4%,-7.5%

Three compounds from above, showing only Rango dissoc inh:
compound	Rango dissoc inh
CC(=O)Nc1ccc(S(=O)(=O)NC(CC(=O)NCCCN2CCOCC2)C(C)C)cc1 (stereo not given)	-4.0%
O=C(COC(=O)c1ccc(S(=O)(=O)N2CCCCC2)cc1)NCc1ccc(F)cc1	0.5%
O=C1NC(c2ccccc2)(C(F)(F)F)SC2=NCCCN12 (stereo not given)	18.4%

Later entries.
Structure,GLA inh pH 4.5,Rango complex inh,miR-21 FLuc,Rango dissoc inh
COC(=O)Cc1c[nH]c2cccc(OCC(O)CN(Cc3ccc([N+](=O)[O-])cc3)C(C)(C)C)c12 (stereo not given),-25.6,-1.1%,26.4%,1.9%
CC1(C)CC(=O)C2=C(C1)Nc1cc(Cl)ccc1S2,-0.4,3.6%,8.3%,14.3%
COc1ccc(N(C(=O)c2ccco2)C(C(=O)NC2CCCC2)c2cccs2)cc1 (stereo not given),3.3,-6.3%,-0.5%,8.6%
COc1ccc(Cc2nnc(NC(=O)c3cccs3)s2)cc1,7.0,-2.8%,-11.6%,0.8%
CC(C)NC(=O)COC(=O)c1ccc(Cl)c(S(N)(=O)=O)c1,2.4,1.7%,0.3%,11.7%
CCn1cc(Cl)c(C(=O)Nc2ccc(OC)c(OC)c2)n1,-14.5,1.9%,-45.3%,8.5%
CC1CCN(C(=O)c2cc(N3C(=O)C4C5CCC(C5)C4C3=O)ccc2Cl)CC1 (stereo not given),6.1,nt,-11.3%,nt
CCOC(=O)C1=C(COC(=O)CCc2ccc(F)cc2)NC(=O)NC1C (stereo not given),nt,-0.4%,nt,5.8%
COc1ccc(N2C(=O)CC(Sc3nc(C)cc(C)c3C#N)C2=O)cc1 (stereo not given),-10.7,-1.7%,-27.9%,-0.5%

Seven entries from above, arranged by their value in GLA inh pH 4.5, lowest first:
Structure,GLA inh pH 4.5,Rango complex inh,miR-21 FLuc,Rango dissoc inh
COc1ccc(N2C(=O)CC(Sc3nc(C)cc(C)c3C#N)C2=O)cc1 (stereo not given),-10.7,-1.7%,-27.9%,-0.5%
CN(C)C/C=C/C(O)(c1ccccc1)c1ccccc1,-4.3,-4.2%,3.5%,17.3%
CCOC(=O)N1CCC(C(N)=O)CC1,-3.2,3.5%,-0.8%,-2.8%
CC(C)NC(=O)COC(=O)c1ccc(Cl)c(S(N)(=O)=O)c1,2.4,1.7%,0.3%,11.7%
CCOc1ccc(NC(=S)NC(C)C(c2ccccc2)N2CCN(C)CC2)cc1 (stereo not given),4.9,-1.3%,1.1%,-3.8%
CC(C)NCCOc1cccc(Br)c1,6.7,-0.3%,-1.2%,-0.3%
O=C(NC(NC1CCS(=O)(=O)C1)C(Cl)(Cl)Cl)c1cccc(Cl)c1 (stereo not given),8.3,0.5%,2.3%,-15.8%

Screening data (PubChem)
